rRNA inh HTS – selective bacterial rRNA inhibition in E. coli. E. coli WT GFP vs humanized-ribosome RFP mutants, fluorescence, 24 h; active compounds read low; DMSO median 0, no signal -100. GFP signal change (wild-type ribosome), % (concentration not given with the values). hit rate 1.6% among 350,000;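 active means significant combined selectivity score with lowered wild-type GFP, culture density cut under 30%, mutant RFP and density less affected; inactive means any of these conditions unmet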; further: one replicate is shown; some compounds called inactive have numbers as strong as hits
FGF22 binding – FGF22 (human) thermal shift binding; Q9HCT0; hit rate 1.5% among 340,000; recombinant FGF22 thermal shift, SYPRO orange fluorescence; percent of sucrose octasulfate shift, DMSO zero; calls only at 9.99 µM;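 active means melting point raised past a set limit in the mean and every replicate; three in four hits are not shown here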
Target sequence (Q9HCT0 whole entry, looked up): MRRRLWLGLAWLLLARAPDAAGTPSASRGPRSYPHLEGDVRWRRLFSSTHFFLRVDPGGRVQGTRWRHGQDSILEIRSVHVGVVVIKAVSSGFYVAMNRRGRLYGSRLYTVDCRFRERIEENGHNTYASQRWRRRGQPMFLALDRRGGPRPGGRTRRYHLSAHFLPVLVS
AF4-AF9 inh – blocks AF4 peptide binding to human AF9. P42568. AlphaScreen, biotin-AF4 peptide binding to FLAG-AF9. inhibition, % at 10 µM. hit rate 0.47% among 350,000. AID 651704;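 active means every replicate reaching a set inhibition limit, whatever the replicate mean, cut at about 25% in these data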;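 further: 0% = plate neutral control median and 100% = total signal loss; the record names both 10 and 1 µM as test concentration; the first replicate is given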
Target sequence (P42568 whole entry, looked up): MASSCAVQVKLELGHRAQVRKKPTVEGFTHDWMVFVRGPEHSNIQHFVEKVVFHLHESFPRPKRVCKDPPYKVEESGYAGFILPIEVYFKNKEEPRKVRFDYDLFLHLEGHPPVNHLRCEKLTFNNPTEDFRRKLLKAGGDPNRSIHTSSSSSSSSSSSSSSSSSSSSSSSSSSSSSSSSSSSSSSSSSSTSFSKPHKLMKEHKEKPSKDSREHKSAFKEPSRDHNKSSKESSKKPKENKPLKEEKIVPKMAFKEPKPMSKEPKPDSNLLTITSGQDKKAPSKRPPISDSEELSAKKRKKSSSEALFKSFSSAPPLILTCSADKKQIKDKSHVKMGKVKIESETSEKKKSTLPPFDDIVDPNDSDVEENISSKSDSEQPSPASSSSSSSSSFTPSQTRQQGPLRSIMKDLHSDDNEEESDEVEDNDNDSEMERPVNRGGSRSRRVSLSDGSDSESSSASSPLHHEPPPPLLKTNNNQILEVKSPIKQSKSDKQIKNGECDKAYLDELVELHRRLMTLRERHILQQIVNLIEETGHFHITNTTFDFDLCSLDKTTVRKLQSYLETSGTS
T cruzi inh – blocks replication of Trypanosoma cruzi; T. cruzi beta-gal in NIH3T3, luminescence, 90 h; inhibition, % (test concentration not listed); hit rate 1.4% among 300,000;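 active means mean inhibition across valid replicates above about 55%, limit read from the data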;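 further: signal also drops with host cell toxicity which is not excluded here; 0% = plate median of DMSO wells and 100% = zero luminescence signal; higher percent means less beta-gal luminescence so fewer parasites; stock transfer was 50 nL into about 50 µL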
Beta apoptosis – beta cell apoptosis inhibition; protection from apoptosis, % (test concentration not listed); hit rate 0.8% among 300,000; INS-1E cytokine-induced death, ATP luminescence, 48 h; percent of positive-control rescue, neutral wells zero; AID 435005;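 active means all replicates at 75% or more, or half of them and the mean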;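 further: 0% = cytokine-treated negative control wells and 100% = positive control rescue; higher means more ATP so stronger rescue from cytokine killing; wells of about 40 µL received 100 nL stock; the first replicate is given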
UCH37 DUB inh – blocks the human deubiquitinase UCH37; purified proteasome/UCH37, Ub-AMC cleavage fluorescence; inhibition, % (no concentration beside the values); hit rate 0.33% among 330,000; AID 588478;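 active means mean of two replicates above 20%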;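 further: 0% = compound-free wells with enzyme and 100% = wells lacking proteasome; stock transfer was 100 nL into about 20 µL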
Target sequence (Q9Y5K5 whole entry, looked up): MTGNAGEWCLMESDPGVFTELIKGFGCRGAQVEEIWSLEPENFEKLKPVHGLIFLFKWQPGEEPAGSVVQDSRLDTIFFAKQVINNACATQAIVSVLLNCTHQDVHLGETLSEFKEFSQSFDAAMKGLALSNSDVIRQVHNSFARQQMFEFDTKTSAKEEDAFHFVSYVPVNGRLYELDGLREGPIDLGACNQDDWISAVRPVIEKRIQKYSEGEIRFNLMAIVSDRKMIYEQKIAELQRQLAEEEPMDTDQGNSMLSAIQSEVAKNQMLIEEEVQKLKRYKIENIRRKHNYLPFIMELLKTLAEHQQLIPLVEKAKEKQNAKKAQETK
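system = Proteasome-associated human UCH37 deubiquitinase | amount = 0.15 nM proteasome as dispensed | medium = pH 7.4 Tris-HCl (50 mM) with ovalbumin, ATP-MgCl2, DTT | incubation = 30 min preincubation with enzyme, 25 min cleavage at room temperature | detection = AMC fluorescence 355/460 nm | read-out basis = percent inhibition | controls = no-proteasome and no-compound wells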
Bfl-1 A1 inh – inhibitors of the anti-apoptotic protein A1, read as caspase activation; MEF A1-2A-BIM cells, Caspase-Glo 3/7 luminescence, 3 h; percent of clofoctol response, vehicle zero; caspase activation, % (test concentration not listed); hit rate 0.066% among 330,000;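 active means over half of replicate activation scores above 10%, or exactly half above 10 with the replicate mean above 10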;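 further: wells of about 30 µL received 50 nL stock; many hits fall short of the cut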
E coli growth – E. coli growth inhibition | Escherichia coli growth, OD600, 23 h; active compounds read low | hit rate 0.21% among 330,000 | OD600 absorbance (concentration not given with the values);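 active means OD600 absorbance below the run mean of sample wells minus 3.6 SD, in any replicate, cut at about 0.56 in these data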;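 further: stock transfer was 300 nL into about 60 µL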
rRNA inh HTS OD600 – recorded beside rRNA inh HTS, whose call it bears; OD600 change, %; measured here: OD600 growth;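 optical density of the mix in the first replicate; 0 = DMSO median and -100 = no signal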
rRNA inh HTS RFP – also measured in rRNA inh HTS; calls as there; RFP signal change, %; measured here: RFP humanized mutant strains;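 first replicate; 0 = DMSO median and -100 = no signal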
An asterisk follows results filed as active; i = inactive; nt = no result given. These rows are one share of the data (hit frequency here may not be typical).

SMILES	rRNA inh HTS	rRNA inh HTS OD600	rRNA inh HTS RFP	FGF22 binding	AF4-AF9 inh	T cruzi inh	Beta apoptosis	UCH37 DUB inh	Bfl-1 A1 inh	E coli growth
COc1cc(/C=C/C(=O)O)cc(S(=O)(=O)N2CCN(S(=O)(=O)c3ccc(Cl)cc3)CC2)c1OC	11	16	-0.3	i	-3.7	-12	7	1.1	0.7	0.68
Cc1cc(C(=O)COC(=O)C2=NN(c3ccccc3)C(=O)CC2)c(C)n1CC(F)(F)F	-4	-5	-1.6	i	3.2	-1	2	2.7	-0.2	0.67
O=C(Nc1nccs1)c1ccccc1Br	11	10	-0.1	i	2.3	-11	7	1.2	1.2	0.69
CC1CCN(C(=O)CSc2ccc(-c3cccnc3)nn2)CC1	8	4	2.3	i	0.9	-4	-15	0.4	2.1	0.7
O=C(CCN1CCN(Cc2ccccc2)CC1)Nc1ccc(OCc2ccccc2)cc1	nt	nt	nt	nt	nt	49	8	2.4	0.4	0.62
COCCNC(=O)c1c[nH]c2ccc(S(=O)(=O)Nc3ccc(F)cc3F)cc2c1=O	5	9	-1.1	i	0.5	4	3	-1.2	0.5	0.69
Cc1ccc(C)c(OCCCNCc2ccccc2)c1	-2	-3	-2.1	i	-0.6	19	nt	4.0	0.0	0.63
CCOC(=O)CCC(=O)OCC(=O)NC(C)C1CC2CCC1C2 (centres undefined)	nt	nt	nt	nt	nt	-18	-5	4.9	0.1	0.71
CCc1cccc(C)c1NC(=S)N1CCCC1C(=O)O (centres undefined)	10	7	0.6	i	0.4	0	2	2.4	-0.2	0.67
COC(=O)c1sccc1NC(=O)CSc1ccccc1NC(=O)CNC(C)C	6	3	0.6	i	-0.3	-1	0	0.2	-0.6	0.68
CC1(C)CC(=O)C=C(NCCO)C1	nt	nt	nt	nt	nt	-7	-2	0.9	1.1	0.69
CCN(CC)C(=O)c1ccc2nc(-c3ccccc3)c(-c3ccccc3)nc2c1	6	0	-2.5	i	3.2	22	-3	-260	0.2	0.68
CN1CCN(C(=O)CCCOc2ccc(Cl)cc2Cl)CC1	nt	nt	nt	nt	nt	18	-7	2.4	0.4	0.63
CCOC(=O)C1=C(COC(=O)COc2ccc(OCC)cc2)NC(=O)NC1C (centres undefined)	15	4	-1.9	i	-0.1	-7	1	0.9	0.4	0.66
CC1CCC2(CC1)NC(=O)N(CC(=O)Nc1cccc(S(=O)(=O)N3CCCCC3)c1)C2=O (centres undefined)	14	17	-3.7	i	1.0	nt	-7	nt	1.0	nt
Cc1ccc(NC(=O)COc2ccc(S(=O)(=O)N3CCOCC3)cc2)cc1	nt	nt	nt	nt	nt	-13	-1	3.4	-0.6	0.76
Cc1ccc(N2CCN(C(=O)c3cccs3)CC2)c(C)c1	-30	-42	-5.0	i	1.6	-12	0	nt	0.3	nt
Cc1cc(C)nc(CCNC(=O)c2cc(COc3ccc(F)cc3F)on2)n1	0	-9	1.6	i	-1.0	-7	1	5.4	0.0	0.7
Cc1ccc(CCC(=O)Nc2ccc([N+](=O)[O-])cc2Cl)o1	3	2	-2.8	i	7.6	1	-6	6.4	0.0	0.65
CCOC(=O)C1=CC[C@@H](c2cc3cc(OC)ccc3n2C)N(S(=O)(=O)c2ccc(C)cc2)[C@H]1C(=O)OCC	2	0	-5.9	i	0.7	nt	-3	0.4	0.0	nt
CCOC(=O)CN1C(=O)S/C(=C/c2cc(C)n(-c3ccccn3)c2C)C1=O	nt	nt	nt	nt	nt	6	2	6.0	-1.1	0.74
Cc1nnc(C)n1/N=C/c1cccc(Oc2ccccc2)c1	4	-3	1.5	i	-8.7	-4	-4	nt	1.7	nt
O=C(NC(=S)Nc1cccc2cccnc12)c1ccccc1	nt	nt	nt	nt	nt	-4	4	-5.0	0.5	0.76
O=C(NCc1ccco1)c1nc2ncccn2n1	nt	nt	nt	nt	nt	-16	-1	7.5	-0.5	0.71
COc1ccc(C(=O)Nc2nc3ccccc3c(=O)[nH]2)cc1	9	10	-7.2	i	-2.8	-2	4	2.7	-10	0.62
CN(C(=O)CO/N=C/c1ccc(OC(F)F)cc1)C1CCS(=O)(=O)C1 (centres undefined)	14	10	0.8	nt	-1.7	-9	-4	nt	-0.7	nt
NC(=S)N=Nc1c(O)n(CC(=O)Nc2ccccc2)c2ccccc12	5	5	-0.8	i	-2.8	-10	2	3.4	3.0	0.7
COc1ccc(/C(O)=C2/C(=O)C(=O)N(CCCN(C)C)C2c2ccc(Cl)cc2)cc1OC (centres undefined)	nt	nt	nt	nt	nt	12	-10	24*	-0.1	nt
COc1ccc(C(=O)CN2C(=O)NC3(CCCc4ccccc43)C2=O)cc1OC (centres undefined)	nt	nt	nt	nt	nt	1	3	2.9	0.5	0.67
Cc1ccccc1NS(=O)(=O)c1cc(C(=O)N2CCCC2)ccc1C	nt	nt	nt	nt	nt	7	0	-6.0	-0.8	0.74
COc1ccc(/C=C/C(=O)NCc2nc3ccccc3[nH]2)cc1OC	-19	-25	42	i	4.6	1	1	-47	-0.4	0.66
O=C(NCc1ccco1)c1ccc(Oc2ccccc2)cc1	nt	nt	nt	nt	nt	-15	0	0.7	-0.9	0.65
COC(=O)[C@@H](N)CS	6	15	-3.1	i	-11	-7	3	2.8	0.1	nt
O=C(Nc1sc2c(c1C(=O)O)CCCCC2)c1cccnc1	nt	nt	nt	nt	nt	-7	0	7.2	-7.1	0.65
O=C(Nc1ccn(Cc2ccc(Cl)cc2)n1)c1ccc2c(c1)OCO2	nt	nt	nt	nt	nt	4	-8	3.1	-0.5	0.69
COc1ccc(S(=O)(=O)N(CC(=O)Nc2ccc(S(=O)(=O)N3CCOCC3)cc2)Cc2ccc(F)cc2)cc1	nt	nt	nt	nt	nt	22	37	4.0	0.8	0.65
CC1CCc2c(sc(N)c2C(N)=O)C1 (centres undefined)	-11	7	1.5	i	-0.5	-1	-3	-27	0.6	0.69
C/C(=N\Nc1ccc(F)cc1F)c1ccc(Br)s1	-4	-1	1.9	i	6.9	-15	3	nt	-0.7	nt
CCCCn1c(N)c(N(CCOC)C(=O)CSCc2cccc(C)c2)c(=O)[nH]c1=O	-1	11	-0.3	i	-12	-3	-6	-1.5	0.2	0.67
CCOc1ccccc1NC(=O)Cn1cnc2c(cnn2-c2ccc(C)c(C)c2)c1=O	nt	nt	nt	nt	nt	17	-4	-0.6	2.0	0.67
O=C(NN1S(=O)(=O)c2ccccc2S1(=O)=O)c1ccc(Br)cc1	3	4	2.5	i	-1.6	-12	-5	nt	-0.2	nt
Cc1nc2sc(C(c3cccc(F)c3)N3CCC(O)CC3)c(O)n2n1 (centres undefined)	nt	nt	nt	nt	nt	-13	-7	3.2	-0.2	0.75
CC1=CC(=C2C(=O)c3ccccc3C2=O)C=C(C)O1	nt	nt	nt	nt	nt	0	7	7.0	0.5	0.69
Cc1cccc(NC(=O)CSc2nnc([C@@H](N)Cc3ccccc3)o2)c1C	nt	nt	nt	nt	nt	-5	-8	4.2	0.2	0.71
C/C(N)=C(/C#N)C(=O)COC(=O)c1cccc2ccccc12	-17	-21	-3.0	i	-1.5	5	-1	0.3	0.7	0.69
O=S1(=O)CCN2C(c3cccc4ccccc34)=CSC2=N1	7	4	-0.6	i	-2.1	-12	-7	3.7	0.3	0.67
COc1ccccc1NC(=O)c1ccc2c(O)c(S(=O)(=O)c3ccccc3)c(=O)[nH]c2c1	15	18	2.0	i	-2.0	-6	nt	11	-0.2	0.71
Cc1cc(Oc2ccccc2)nc(NCc2ccccc2)n1	nt	nt	nt	nt	nt	1	-10	-0.2	-0.7	0.73
O=c1c2ccccc2[nH]c(=S)n1Cc1ccccc1Cl	-11	11	-3.0	i	-1.0	-11	nt	1.1	0.1	0.69
O=C(Nc1ccc2nn(-c3ccccc3)nc2c1)c1cccs1	4	14	9.1	i	-12	10	7	-64	-0.2	0.74
COc1cc(C(=O)n2nc(C)cc2C)ccc1O	nt	nt	nt	nt	nt	-9	1	4.8	-0.6	0.74
CNC(=O)CC(C(=O)O)c1ccc(OC(C)C)cc1 (centres undefined)	nt	nt	nt	nt	nt	1	-5	-0.2	-0.4	0.76
COc1ccc(S(=O)(=O)NCc2ccccn2)cc1NC(=O)c1ccccc1	2	8	2.3	i	2.4	1	4	0.2	0.6	0.7
COC(=O)CS(=O)(=O)c1ccc2c(c1)CC(=O)N2	nt	nt	nt	nt	nt	-11	1	4.6	0.2	0.78
COc1cccc(NC(=O)CN(C)C(=O)Cc2n[nH]c(=O)c3ccccc23)c1	7	11	-3.2	i	1.4	nt	-6	1.2	0.6	0.67
CC(CCc1ccccc1)NC(=O)C(Cc1ccccc1)NS(=O)(=O)c1cccs1 (centres undefined)	nt	nt	nt	nt	nt	-9	7	2.6	-0.5	0.63
CCC(C)(C)NC(=O)C(c1ccc(C)cc1)N(CC1CCCO1)C(=O)c1csnn1 (centres undefined)	2	13	0.2	i	-2.4	-5	2	0.8	0.1	0.61
O=C(Nc1ccc(F)cc1)Oc1ccccc1N1CCOCC1	13	6	3.4	i	0.3	-9	-2	-1.0	1.0	0.68
CN(CC1COc2ccccc2O1)C(=O)CSc1ncnc2sccc12 (centres undefined)	-19	-29	-0.1	i	-8.8	nt	-2	0.9	-0.6	0.68
O=C(Nc1ccc([N+](=O)[O-])cc1)Nc1ccc(N2CCOCC2)c2nonc12	14	22	2.6	i	12	71*	3	7.8	-0.5	0.67

3 of the entries above in order of their number in UCH37 DUB inh, highest first:
molecule	UCH37 DUB inh
COC(=O)CS(=O)(=O)c1ccc2c(c1)CC(=O)N2	4.6
COc1cccc(NC(=O)CN(C)C(=O)Cc2n[nH]c(=O)c3ccccc23)c1	1.2
O=C(Nc1ccc2nn(-c3ccccc3)nc2c1)c1cccs1	-64

More records.
SMILES	rRNA inh HTS	rRNA inh HTS OD600	rRNA inh HTS RFP	FGF22 binding	AF4-AF9 inh	T cruzi inh	Beta apoptosis	UCH37 DUB inh	Bfl-1 A1 inh	E coli growth
N/C(=N\OC(=O)c1ccc(Cl)cc1Cl)c1cccnc1	nt	nt	nt	nt	nt	8	2	4.7	-6.3	0.69
CC(=O)O[C@H](COc1c2ccoc2cc2oc(=O)ccc12)C(C)(C)O	2	7	3.5	i	0.7	nt	2	-50	-0.3	nt
Cc1nnc(SCc2c(Cl)cccc2Cl)n(N)c1=O	2	-3	-3.0	nt	0.9	-14	3	1.3	0.6	0.61
O=S1(=O)N=C2CCCCCN2C(c2ccncc2)N1 (centres undefined)	nt	nt	nt	nt	nt	-5	7	2.8	-0.2	0.72
O=C(NCc1ccco1)NC(=O)c1csc([N+](=O)[O-])c1	1	10	7.1	i	-4.5	37	-8	1.8	-0.1	0.6
CCOC(=O)c1ccc(N2CCOCC2)c(NC(=O)c2ccc3c(c2)OCO3)c1	-19	-14	-1.1	i	0.8	4	nt	nt	-0.4	nt
CCCCOC(=O)c1sc2nc(C)cc(C)c2c1N	nt	nt	nt	nt	nt	-2	3	-355	-1.0	0.66
